gsp agonist – gsp mutant agonism; Potency, µM (titrated, usually from 76.9 µM), inactives show top-dose activation (cAMP increase), actives largely listed as activators; gsp mutant cells, cAMP HTRF, 30 min; control for the full effect not named in the record; 340,000 compounds, 0.13% hits; active = well fitted activation curve with a large enough effect; inconclusive = small, poorly fitted or top-dose-only effect, or another doubt; inactive = no such curve, though single readings can be large or run the other way; cell line not stated here;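 note: phosphodiesterase inhibitor Ro 20-1724 added with compounds to block cAMP breakdown; potency is the fitted concentration of half-maximal effect; nearly all actives have a fitted effect of over 60% in size; about a fifth of the inactives were tested at one dose only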
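Cells stably selected in G418 were plated at 2000/well, grown 16-24 hr, then given compounds in DMSO with the PDE inhibitor […] (300 uM solution added) for 30 min at 37C; cAMP was read by HTRF.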
ClpP mod – qHTS Assay for Activators of ClpP; 340,000 compounds, 1.9% hits; Potency, µM (top dose mostly 57.5 µM), for inactives: at the top dose activity change, negative = active; purified B. subtilis ClpP, FRET peptide cleavage, 20 min; ATP-dependent Clp protease proteolytic subunit (Bacillus subtilis (strain 168)), P80244; active = well fitted falling curve with a large enough effect; inconclusive = small, poorly fitted or top-dose-only effect; inactive = no such curve, though single readings can be large or run the other way; note: potency is the fitted concentration of half-maximal effect; the source files actives as falling curves though it sought activators and does not explain the sign; nearly all actives have a fitted effect of over 65% in size; many hits overshoot -100%
Target sequence (P80244 whole entry, looked up): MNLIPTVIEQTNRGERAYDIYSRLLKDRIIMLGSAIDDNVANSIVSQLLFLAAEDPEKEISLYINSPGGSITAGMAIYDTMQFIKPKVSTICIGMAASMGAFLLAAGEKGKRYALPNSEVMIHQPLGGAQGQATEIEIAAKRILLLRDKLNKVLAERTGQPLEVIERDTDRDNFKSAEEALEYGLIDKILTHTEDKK
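FRET quenching reversal measured ClpP activation: 10 microg/mL B. subtilis ClpP at pH 8 with the FRET-FV decapeptide, read at 430 nm after 320 nm excitation. The 20-min minus 0-min signal was scaled between DMSO/no-enzyme wells and ADEP (5.8 microM final).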
TRPML1 agonist – agonists of human TRPML1 channel; TRPML1-expressing cells, Ca2+ dye fluorescence, FDSS; host cell line not named in the record; reference of the full effect not given here; activation, % (concentration not given with the values); 410,000 compounds, 0.12% hits; in the data active = activation above about 50%; inconclusive = about 30% to 50%; inactive = below about 30%; note: 0% is about no effect; the text of the record puts the active cut at 80%
Target sequence (Q9GZU1 whole entry, looked up): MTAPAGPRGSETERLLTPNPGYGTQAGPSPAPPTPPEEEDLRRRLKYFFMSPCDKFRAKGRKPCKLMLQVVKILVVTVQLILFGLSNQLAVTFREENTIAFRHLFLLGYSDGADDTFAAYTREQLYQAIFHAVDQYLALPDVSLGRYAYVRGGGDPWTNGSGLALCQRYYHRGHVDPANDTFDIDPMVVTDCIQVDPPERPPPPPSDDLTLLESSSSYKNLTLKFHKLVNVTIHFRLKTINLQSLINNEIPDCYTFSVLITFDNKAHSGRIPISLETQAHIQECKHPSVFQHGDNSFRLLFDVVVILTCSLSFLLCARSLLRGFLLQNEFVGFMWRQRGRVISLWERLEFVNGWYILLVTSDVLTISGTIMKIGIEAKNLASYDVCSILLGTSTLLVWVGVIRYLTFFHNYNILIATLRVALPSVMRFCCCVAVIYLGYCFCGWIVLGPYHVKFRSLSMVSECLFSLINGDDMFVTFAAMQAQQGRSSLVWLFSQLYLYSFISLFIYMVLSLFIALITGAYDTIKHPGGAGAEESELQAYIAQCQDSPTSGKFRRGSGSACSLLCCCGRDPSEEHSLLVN
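Kinetic FDSS Ca2+ read in Tet-induced TRPML1-DL cells (ABD Ca8 dye plus quencher, 45-90 min RT loading): baseline, then compound, then 110 s agonist window; EC80 agonist 54-4 at 4uM final added afterwards for a 110 s antagonist window.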
Menin-MLL FL inh – inhibitors of human menin-MLL interaction, wild-type MLL peptide | AID 1766 | FP activity change, % at 61.4 µM | 290,000 tested, under 10 active | Fluorescence polarization, fluorescein-MLL peptide displacement from menin; inconclusive = falling polarisation curve, or a change in total fluorescence; inactive = total fluorescence flat and polarisation flat or rising; no compound was filed as active; the % refers to the polarisation; negative = inhibition;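 note: % of control where 0% means no effect; inhibitors lower the polarisation; unlabelled MLL peptide was the positive control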
TRPML1 inh – human mucolipin-1 channel inhibition; Q9GZU1; TRPML1-inducible cells, Ca2+ dye fluorescence, FDSS; active compounds read low; inhibition of EC80 agonist-evoked calcium signal; activity change, negative = inhibition, % (no concentration beside the values); 390,000 compounds, 0.02% hits; in the data active means activity change below about -50%; inconclusive means about -30% to -50%; inactive means above about -30%;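 note: stimulus is agonist 54-4 at its EC80 concentration; % is set by controls: 0 for no effect and ±100 for the full control effect; compound concentration not given in the record; the text of the record puts the active cut at -80%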
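Calcium fluorescence in TRPML1-DL cells induced overnight with Tet: a 110 s read after compound pin addition, then a 110 s antagonist read after challenge with 54-4 at 4 uM final (EC80).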
gsp antagonist – antagonists of gsp mutant (McCune-Albright syndrome); gsp-mutant cells, cAMP HTRF, 30 min; control for the full effect not named in the record; Potency, µM (series often up to 76.9 µM), for inactives: top-dose activity change, negative = inhibition, hits mostly inhibitors; 340,000 compounds, 0.4% hits; active = falling curve of any shape with a large fitted effect; inconclusive = falling curve, mostly with a smaller effect; inactive = flat or rising curve; cell line not stated here;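 note: intracellular cAMP measured with PDE inhibitor Ro 20-1724 present during compound exposure; potency is the fitted concentration of half-maximal effect; % is set by controls: 0 for no effect and ±100 for the full control effect; nearly all actives have a fitted effect of over 65% in size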
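Cells, 2000/well, grown 16–24 h in DMEM 10% FBS with 0.5 mg/ml G418, then compounds plus […] (300 uM addition stock), 30 min at 37C. cAMP read by HTRF (cAMP-d2 and anti-cAMP antibody-K in lysis buffer) after 30 min RT.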
Starred values were filed as active, the others as inactive; ? = inconclusive; . = not tested or not shown; & = joins results of further samples; [ ] = dose if it differs, or a comment.

SMILES | gsp agonist | ClpP mod | TRPML1 agonist | Menin-MLL FL inh | TRPML1 inh | gsp antagonist
O=C(NCC1CCCO1)c1cccc(NC(=O)c2cccs2)c1 (stereo not drawn) | 0%[15.4 µM] | -0.5% | -0.6 | -2.4 | 21 | 2%
CS(=O)(=O)N(CC(=O)N/N=C/c1cccs1)c1cccc(Cl)c1Cl | 15% | -2.6% | 0.0 | -1.9 | -5 | -11%
COC(=O)[C@@]1(Cc2ccc(F)cc2)[C@H]2c3cc(C(=O)N(C)C)n(CCO)c3C[C@H]2CN1C(=O)c1ccccc1 | . | -0.2% | 1.2 | 1.0 | . | .
CCN(c1ccccc1)S(=O)(=O)c1ccc(Cl)c(NC(=O)CSc2ncn[nH]2)c1 | -34%[inhibitor] | -1.6% | 1.3 | 0.0 | 1 | -20%
O=C(CCC(=O)Nc1ccc(F)cc1)N/N=C/c1cccs1 | 5% | 0.3% | -0.2 | -2.6 | -5 | 12%
COc1cccc(-c2cc(C(=O)NCCc3ccc(C)cc3)[nH]n2)c1 | . | 1.7% | 0.6 | . | 2 | .
CCS(=O)(=O)N1CCC(C(=O)NC2CCCCC2)CC1 | -56%[inhibitor] | 1.4% | 0.7 | 1.4 | 0 | 2%
Cc1cc(O)c(/C=N/Nc2ccc(Cl)cc2)c(=O)o1 | -31%[inhibitor] | -2.9% | 1.0 | 4.2 | -5 | -7%
CC(C)(C)n1nc2c(c1NC(=O)COc1ccccc1F)CS(=O)(=O)C2 | -1%[15.4 µM] | . | -0.5 | 5.0 | -17 | -1%
CN(CCCNC(=O)C1CCN(S(=O)(=O)N2CCC3(CC2)OCCO3)CC1)Cc1ccccc1 | -11% | -0.2% | -0.4 | 4.8 | -10 | 2%
COc1ccc(-c2nc(CN3CCC(C(=O)NCc4ccc(C)cc4)CC3)c(C)o2)cc1OC | . | 4.1% | 2.4 | . | -12 | .
N#Cc1ccc(C(=O)Nc2ccc3ccccc3c2)cc1 | -28% | . | 0.1 | -3.0 | -4 | 3%
CC1CCCC(N2CCN(C(=O)c3ccc([N+](=O)[O-])cc3)CC2)C1 (stereo not drawn) | -24% | -2.4% | -0.2 | 1.6 | 8 | -10%
COc1ccccc1NC(=O)c1ccc(CN2C(=O)C(C)=C(c3ccc(C)c(C)c3)S2(=O)=O)cc1 | . | -5.3% | 2.2 | . | -20 | .
CCOc1ccccc1N1CC(c2nc3ccccc3n2Cc2c(C)cc(C)cc2C)CC1=O (stereo not drawn) | . | -4.9% | ? | . | -9 | .
Cc1ccc2nc(Br)c3c(c2c1)OC(CBr)C3 (stereo not drawn) | 14% | -3.1% | . | 3.0 | . | -3%
COc1ccc(-c2cc(C(=O)n3cnc4ccccc43)c3ccccc3n2)cc1 | 19% | 32µM* | -0.4 | 1.6 | 6 | -12%
CCC(C(=O)Nc1cccc(-c2nc3cccnc3s2)c1C)c1ccccc1 (stereo not drawn) | . | -7.0% | 2.1 | . | -6 | .
O=C(NCc1ccccc1)C(=O)Nc1nccs1 | -3%[15.4 µM] | . | -0.4 | -3.4 | -16 | 8%
c1cc2c3c(cccc3c1)NC1(CCCCCC1)N2 | 2% | -29% | 2.3 | -1.9 | 24 | 2%
CSc1ccc(S(=O)(=O)NCC(=O)OCC(=O)N(C)Cc2ccccc2)cc1[N+](=O)[O-] | 0%[15.4 µM] | -3.9% | -0.7 | . | -5 | -12%
CCOC(=O)N1CCN(S(=O)(=O)c2ccc(OCC)c3ccccc23)CC1 | ? | -9.0% | -0.4 | -1.7 | 9 | -14%
NC(=O)c1ccc(NC(=O)COc2ccc([N+](=O)[O-])cc2Cl)cc1 | -4% | . | 0.0 | -2.2 | -11 | 4%
Nc1nc2ccccc2n1C(=O)c1ccco1 | 1%[15.4 µM] | -1.5% | 0.3 | -0.7 | -9 | -10%
Cc1cccc(C(=O)N2c3nc(-c4ccco4)nn3C3(CCCCC3)[C@@H]3CCCC[C@@H]32)c1 | . | -4.5% | 2.5 | . | -1 | .

Ordered by value in gsp antagonist (low to high): 3 of the compounds above
SMILES	gsp antagonist
COc1ccc(-c2cc(C(=O)n3cnc4ccccc43)c3ccccc3n2)cc1	-12%
Nc1nc2ccccc2n1C(=O)c1ccco1	-10%
Cc1ccc2nc(Br)c3c(c2c1)OC(CBr)C3 (stereo not drawn)	-3%

Continued:
SMILES | gsp agonist | ClpP mod | TRPML1 agonist | Menin-MLL FL inh | TRPML1 inh | gsp antagonist
COC(=O)CNc1nc(-c2ccccc2F)nc2ccccc12 | 16% | -0.2% | 0.9 | 0.1 | 4 | -14%
COc1cccc(/C=C/C(=O)OCC(=O)NC2CC2)c1 | 16% | 4.1% | -0.1 | . | 0 | 5%
Cc1ccc(C)c(NC(=O)Cn2c(=O)n(CCC(C)C)c(=O)c3cccnc32)c1 | . | -4.5% | -0.2 | . | -4 | .
COCCCNC(=O)c1ccc2c(c1)N(Cc1ccccc1F)C(=O)c1ccccc1S2=O (stereo not drawn) | . | -0.5% | -0.5 | . | 8 | .
N#CC1=C2SCN(c3ccccc3)CN2C(=O)CC1c1c(Cl)cccc1Cl (stereo not drawn) | -33%[inhibitor] | -4.8%&-1.6% | -0.3&0.2 | 3.8 | 23 | -21%
COc1ccccc1N/N=C(\C#N)C(=N)N1CCOCC1 | -1%[15.4 µM] | . | 0.5 | -3.9 | 5 | -16%
COc1ccccc1N1CCN(S(C)(=O)=O)CC1 | 14% | -2.1% | 0.2 | 1.4 | 4 | 5%
CC(=O)N1CCN(C(=O)c2cccc(S(=O)(=O)N3CCOCC3)c2)CC1 | -1%[15.4 µM] | 1.3% | -0.4 | . | -12 | 8%
CCc1ccn2cc(-c3ccc4c(c3)OCO4)nc2c1 | -8% | . | 0.2 | 2.5 | 33 | -2%
CC(=O)c1ccc(S(=O)(=O)N2CCN(C(=O)c3ccccc3Cc3ccccc3)CC2)cc1 | -6% | -0.4% | 0.4 | . | -1 | -5%
Cc1ccc(NC(=O)CN(C)C(=O)CSc2nnnn2C)cc1 | 2% | 0.6% | -0.1 | 1.5 | -4 | 11%
Cc1ccc(NC(=O)c2cc(=O)c3ccccc3o2)cc1S(=O)(=O)N1CCCCC1 | -7%[15.4 µM] | . | 0.4 | 0.0 | 19 | -19%
COc1ccc(NC(=O)/C(C#N)=C/c2cccnc2)c(OC)c1 | -75%[inhibitor] | -0.6% | -0.8 | 0.1 | 14 | -3%
Cc1cccc(S(=O)(=O)NC(=O)C2(C)CCN2C(=O)C2(c3ccc(Cl)cc3)CCC2)c1 (stereo not drawn) | . | 0.2% | 0.0 | . | -10 | .
Cc1ccc(-c2sc(C(=O)Nc3ccc(Br)cc3)cc2CC(=O)O)cc1 | . | -20% | -0.7 | . | 46 | .
CC(C)(C)C(=O)Nc1sc2c(c1C(=O)Nc1ccccn1)CCCC2 | -9%[15.4 µM] | 9.4% | 0.2 | -1.4 | -9 | -6%
CN(C)CC(=O)c1ccc(-c2ccccc2)cc1 | 12% | -6.3% | 8.4 | -0.2 | 17 | 8%
Cc1cc(C)nc(NS(=O)(=O)c2ccc(-n3cccc3)cc2)n1 | 3% | -0.9% | -0.3 | 3.3 | -12 | 11%
CCSc1nnc(NC(=O)CSC2=NCCS2)s1 | 19%[15.4 µM] | . | 0.7 | 5.3 | 18 | -1%
O=C(Nc1cccnc1)c1ccc(COc2ccccc2Cl)o1 | 3% | -0.4% | 1.7 | 2.0 | -17 | -6%
CCCN1CCN(c2nc3c([nH]2)c(=N)ncn3CC(O)CO)CC1 (stereo not drawn) | ? | -2.0% | 1.5 | 1.3 | 9 | -3%
Cc1cccc(NC(=O)C(Cc2ccccc2)n2cccc2)c1C (stereo not drawn) | . | 1.3% | 3.6 | . | 24 | .
COc1cc2c(cc1OC)/C(=C/C(=O)c1ccc(NC(C)=O)cc1)NCC2 | 8%[15.4 µM] | 0.5% | -1.8 | 8.3 | 7 | 20%
NS(=O)(=O)c1cccc(NC(=O)CSc2ccccn2)c1 | -41%[inhibitor] | 1.5% | 3.8 | -6.1 | 6 | 4%
COCCOC(=O)c1[nH]c2c(c1C)C(=O)CC(c1cccs1)C2 (stereo not drawn) | 30% | 1.5% | -0.8 | 4.5 | 2 | 6%

A draw from above in order of SMILES length, descending:
SMILES | gsp agonist | ClpP mod | TRPML1 agonist | Menin-MLL FL inh | TRPML1 inh | gsp antagonist
Cc1ccc(-c2sc(C(=O)Nc3ccc(Br)cc3)cc2CC(=O)O)cc1 | . | -20% | -0.7 | . | 46 | .
Cc1cccc(NC(=O)C(Cc2ccccc2)n2cccc2)c1C (stereo not drawn) | . | 1.3% | 3.6 | . | 24 | .
NS(=O)(=O)c1cccc(NC(=O)CSc2ccccn2)c1 | -41%[inhibitor] | 1.5% | 3.8 | -6.1 | 6 | 4%

By substructure, those above with an NH in an aromatic ring.
SMILES | gsp agonist | ClpP mod | TRPML1 agonist | Menin-MLL FL inh | TRPML1 inh | gsp antagonist
CCN(c1ccccc1)S(=O)(=O)c1ccc(Cl)c(NC(=O)CSc2ncn[nH]2)c1 | -34%[inhibitor] | -1.6% | 1.3 | 0.0 | 1 | -20%
COc1cccc(-c2cc(C(=O)NCCc3ccc(C)cc3)[nH]n2)c1 | . | 1.7% | 0.6 | . | 2 | .
CCCN1CCN(c2nc3c([nH]2)c(=N)ncn3CC(O)CO)CC1 (stereo not drawn) | ? | -2.0% | 1.5 | 1.3 | 9 | -3%
COCCOC(=O)c1[nH]c2c(c1C)C(=O)CC(c1cccs1)C2 (stereo not drawn) | 30% | 1.5% | -0.8 | 4.5 | 2 | 6%

Next results
SMILES | gsp agonist | ClpP mod | TRPML1 agonist | Menin-MLL FL inh | TRPML1 inh | gsp antagonist
COC(=O)C1Cc2ccccc2CN1C(=O)CCl (stereo not drawn) | 0%[15.4 µM] | -2.2% | 1.0 | 0.4 | -4 | 0%
CN(C)c1ccc(/C=C(/NC(=O)c2ccccc2)C(=O)NCCCn2ccnc2)cc1 | -7% | 0.3% | 8.0 | . | -5 | ?
CS(=O)(=O)c1ccc(C(=O)Nc2ccccc2N2CCOCC2)c(Cl)c1 | -2%[15.4 µM] | . | 0.6 | -1.0 | 13 | 0%
O=C(CSc1ccc(-c2ccccn2)nn1)Nc1ccccc1 | -8%[15.4 µM] | -1.5% | -0.7 | . | -11 | -11%
Cc1cc(Cl)c(S(=O)(=O)NCCC(=O)O)cc1OCC(N)=O | 14% | -2.7% | 0.0 | -0.1 | 4 | 1%
CC1CCCN(C(=O)COc2ccc3c(c2)OCO3)C1 (stereo not drawn) | 19% | 0.0% | -0.2 | . | 19 | -6%

Screening results deposited in PubChem BioAssay by National Center for Advancing Translational Sciences (NCATS).
